gsp antag: antagonists of gsp mutant (McCune-Albright syndrome). gsp-mutant cells, cAMP HTRF, 30 min; control for the full effect not named in the record. Potency, µM (series often up to 76.9 µM), without a hit: at the highest dose activity change, negative = inhibition, actives largely listed as inhibitors. 340,000 tested, 0.4% active; active = falling curve of any shape with a large fitted effect; inconclusive = falling curve, mostly with a smaller effect; inactive = flat or rising curve; cell line not stated here;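 further: intracellular cAMP measured with PDE inhibitor Ro 20-1724 present during compound exposure; potency means the concentration at half of the fitted maximal effect; on the % scale 0 is the no-effect control and ±100 the full control effect; nearly all actives have a fitted effect of over 65% in size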
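Cells, 2000/well, grown 16–24 h in DMEM 10% FBS with 0.5 mg/ml G418, then compounds plus […] (300 uM addition stock), 30 min at 37C. cAMP read by HTRF (cAMP-d2 and anti-cAMP antibody-K in lysis buffer) after 30 min RT.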
ClpP mod: qHTS Assay for Activators of ClpP; purified B. subtilis ClpP, FRET peptide cleavage, 20 min; Potency, µM (highest dose often 57.5 µM), for inactives: at the top dose activity change, negative = active; 340,000 tested, 1.9% active; AID 651965, 2013; active = well fitted falling curve with a large enough effect; inconclusive = small, poorly fitted or top-dose-only effect; inactive = no such curve, though single readings can be large or run the other way; further: potency means the concentration at half of the fitted maximal effect; the source files actives as falling curves though it sought activators and does not explain the sign; nearly all actives have a fitted effect of over 65% in size; many hits overshoot -100%
Target sequence (P80244 whole entry, looked up): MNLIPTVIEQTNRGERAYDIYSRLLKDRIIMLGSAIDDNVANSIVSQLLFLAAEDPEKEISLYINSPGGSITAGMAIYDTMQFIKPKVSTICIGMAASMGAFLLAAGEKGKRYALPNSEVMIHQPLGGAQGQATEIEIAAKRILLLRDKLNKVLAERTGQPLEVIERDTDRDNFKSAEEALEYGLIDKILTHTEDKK
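ClpP 10 microg/mL final, pH 8 Tris/KCl buffer with BSA, glycerol, Tween-20; compound pinned in; FRET-FV substrate; RT 20 min; Ex320/Em430; ΔFRET vs ADEP 5.8 microM, DMSO, no enzyme.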
Menin-MLL FL inh: inhibitors of human menin-MLL interaction, wild-type MLL peptide; Fluorescence polarization, fluorescein-MLL peptide displacement from menin; FP activity change, % at 61.4 µM; 290,000 tested, under 10 active; AID 1766; inconclusive = falling polarisation curve, or a change in total fluorescence; inactive = total fluorescence flat and polarisation flat or rising; no compound was filed as active; the % refers to the polarisation; negative = inhibition;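 further: % of control where 0% means no effect; inhibitors lower the polarisation; unlabelled MLL peptide was the positive control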
TRPV1 potentiator: potentiators of human vanilloid receptor 1 (TRPV1); Q8NER1; potentiation, % at 8.33 µM; TRPV1-expressing cells, Fluo-8 calcium influx, capsaicin EC20 potentiation; host cell line not named in the record; control for the full effect not named in the record; 320,000 tested, 0.02% active; active means potentiation above 80%; inconclusive means 30% to 80%; inactive means below 30%; further: 0% is about no effect
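Cells expressing TRPV1 were dye-loaded with Fluo-8 and read kinetically: 10 s baseline, 3 min after compound (agonist portion), then 2 min after EC20 capsaicin (allosteric enhancer portion). Calcium-bound dye fluorescence at 480/520 nm.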
gsp ag: gsp mutant agonism; gsp mutant cells, cAMP HTRF, 30 min; control for the full effect not named in the record; Potency, µM (top dose mostly 76.9 µM), for the others: at the top dose activation (cAMP increase), most hits filed as activators; 340,000 tested, 0.13% active; AID 624287; active = well fitted activation curve with a large enough effect; inconclusive = small, poorly fitted or top-dose-only effect, or another doubt; inactive = no such curve, though single readings can be large or run the other way; cell line not stated here;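 further: phosphodiesterase inhibitor Ro 20-1724 added with compounds to block cAMP breakdown; potency means the concentration at half of the fitted maximal effect; nearly all actives have a fitted effect of over 60% in size; about a fifth of the inactives were tested at one dose only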
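Cells stably selected in G418 were plated at 2000/well, grown 16-24 hr, then given compounds in DMSO with the PDE inhibitor […] (300 uM solution added) for 30 min at 37C; cAMP was read by HTRF.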
Sfp PPTase inh: Sfp phosphopantetheinyl transferase inhibition. Biochemical Sfp PPTase activity, qHTS. Potency, µM, for inactives: max response, negative = inhibition, usual class: inhibitors. 310,000 tested, 3.5% active; active means well fitted inhibition curve with a large enough effect; inconclusive means small, poorly fitted or top-dose-only effect, or another doubt; inactive means no such curve, though single readings can be large or run the other way;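 further: the enzyme is Sfp with the accession as filed and its product quenches rhodamine fluorescence; potency means the concentration at half of the fitted maximal effect; 0% = enzyme reaction without inhibitor and -100% = no enzyme wells; top concentration of the series not given in the record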
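Reaction rates are the 30-min fluorescence difference (ex 525, em 598 nm) in wells containing 15 nM Sfp, 5 uM rhodamine-CoA and 12.5 uM BHQ-2-YbbR at pH 7.6 with 10 mM MgCl2.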
D2 potentiator: human D2 receptor positive allosteric modulation | P14416 | DiscoveRx D2 beta-arrestin cells, luminescence, 90 min; 100% = 57 uM dopamine signal | potentiation, % (test concentration not listed) | 360,000 tested, 0.23% active | AID 624464; active = potentiation of 50% or more; inconclusive = 30% to 50%; inactive = 30% or less;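 further: compound concentration not given in the record; tested on top of an EC20 dose of dopamine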
Target sequence (P14416 whole entry, looked up): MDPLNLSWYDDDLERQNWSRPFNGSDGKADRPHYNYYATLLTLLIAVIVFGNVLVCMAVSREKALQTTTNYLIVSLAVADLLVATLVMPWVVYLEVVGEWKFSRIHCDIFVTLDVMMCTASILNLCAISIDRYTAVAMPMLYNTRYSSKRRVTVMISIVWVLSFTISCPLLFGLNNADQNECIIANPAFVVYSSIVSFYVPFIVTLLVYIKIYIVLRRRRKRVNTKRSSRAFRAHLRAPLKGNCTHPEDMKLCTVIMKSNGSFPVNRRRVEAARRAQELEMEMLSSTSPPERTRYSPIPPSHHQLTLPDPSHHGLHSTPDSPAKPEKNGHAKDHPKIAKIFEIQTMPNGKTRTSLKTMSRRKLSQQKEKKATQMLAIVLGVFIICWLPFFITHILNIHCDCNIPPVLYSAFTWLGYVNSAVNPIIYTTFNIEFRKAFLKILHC
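PathHunter beta-arrestin assay in DiscoveRx D2 cells. Compounds were added with an EC20 of dopamine (50 nM final) for 90 min at 37 deg C. Luminescence was read 1 h after detection reagent, with 57 uM dopamine as the EC100 control.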
Active calls of the source: *; ? = inconclusive; / = not tested or not shown; & = joins results of further samples; [ ] = remark or other dose.

SMILES | gsp antag | ClpP mod | Menin-MLL FL inh | TRPV1 potentiator | gsp ag | Sfp PPTase inh | D2 potentiator
CC(C)n1c(SCC(=O)Nc2ccccc2)nc2c1c(=O)n(C)c(=O)n2C | 16% | 1.6% | 4.7 | -14 | 19% | 20% | 6
O=C(Nc1cccc([N+](=O)[O-])c1)c1cnccn1 | -1% | 2.1% | / | 3 | 8% | -4% | -4
Cc1cccc(NC(=O)c2ccc(COc3ccccc3)o2)n1 | 4% | 0.8% | / | 8 | -22% | 6% | 6
O=C(CSCc1cccc(Cl)c1)OCc1nc2ccsc2c(=O)[nH]1 | 5% | / | / | 4 | -7%[15.4 µM] | / | 3
Cn1c(N2CCOCC2)c(C#N)c2ccccc21 | -1% | -5.1% | 1.3 | -5 | ? | 16% | 5
Cc1ccccc1NC(=O)CCN1CCN(CCO)CC1 | -8% | -0.1% | 1.7 | 2 | 17%[15.4 µM] | 8% | -10
CN(C)/C=N/C(=S)Nc1ccc(Cl)cc1Cl | 2% | / | -0.1 | 4 | -49%[15.4 µM] | -21% | -8
COc1ccc(C)cc1NC(=O)C(OC(=O)c1ccc(Cl)c(S(=O)(=O)N(C)c2ccccc2)c1)c1ccccc1 (stereo unspecified) | 2% | / | 3.2 | 1 | -9%[15.4 µM] | 2% | 7
O=C(c1ccc(-c2cccc(C(F)(F)F)c2)o1)N1CCOCC1 | -7% | -1.7% | 2.1 | -18 | 19% | 2% | -1
CCOC(=O)c1c(N2C(=O)C3C4C=CC(C4)C3C2=O)sc2c1CCC(C)C2 (stereo unspecified) | -3% | -0.8% | -0.3 | -3 | ? | 7% | -7
CC(C)CNC(=S)N(CCCN(C)C)Cc1cc2cc3c(cc2[nH]c1=O)OCCO3 | 4% | 3.3% | -1.7 | -3 | -96%[inhibitor] | 12% | 0
O=C(c1cccc([N+](=O)[O-])c1)N1CCN(c2ccc(Cl)cc2)CC1 | 4% | 0.4% | 2.4 | -15 | 30% | -5% | -2
CC1CCC2(CC1)NC(=S)N(C(C)(C)C)N2 (stereo unspecified) | 9% | / | 1.0 | -6 | -10%[15.4 µM] | 35µM* | -6
CC1Cc2ccccc2N1C(=O)C1CCCN(S(=O)(=O)c2cccc3nsnc23)C1 (stereo unspecified) | -34% | 0.1% | 2.3 | / | 2% | 8% | -7
COc1ccc(CNC(=O)N2CCN(S(=O)(=O)c3ccc(C)cc3C)CC2)cc1 | 4% | / | 0.1 | -33 | 7%[15.4 µM] | 11% | 0

Sorted by the number under gsp ag (high to low): 3 from the list above.
canonical_smiles,gsp antag,Menin-MLL FL inh,gsp ag,Sfp PPTase inh,D2 potentiator
CC(C)n1c(SCC(=O)Nc2ccccc2)nc2c1c(=O)n(C)c(=O)n2C,16%,4.7,19%,20%,6
O=C(Nc1cccc([N+](=O)[O-])c1)c1cnccn1,-1%,/,8%,-4%,-4
Cc1cccc(NC(=O)c2ccc(COc3ccccc3)o2)n1,4%,/,-22%,6%,6

Among those listed so far, these contain a Cl atom.
SMILES | gsp antag | ClpP mod | Menin-MLL FL inh | TRPV1 potentiator | gsp ag | Sfp PPTase inh | D2 potentiator
O=C(CSCc1cccc(Cl)c1)OCc1nc2ccsc2c(=O)[nH]1 | 5% | / | / | 4 | -7%[15.4 µM] | / | 3
CN(C)/C=N/C(=S)Nc1ccc(Cl)cc1Cl | 2% | / | -0.1 | 4 | -49%[15.4 µM] | -21% | -8
COc1ccc(C)cc1NC(=O)C(OC(=O)c1ccc(Cl)c(S(=O)(=O)N(C)c2ccccc2)c1)c1ccccc1 (stereo unspecified) | 2% | / | 3.2 | 1 | -9%[15.4 µM] | 2% | 7
O=C(c1cccc([N+](=O)[O-])c1)N1CCN(c2ccc(Cl)cc2)CC1 | 4% | 0.4% | 2.4 | -15 | 30% | -5% | -2

Next part
SMILES | gsp antag | ClpP mod | Menin-MLL FL inh | TRPV1 potentiator | gsp ag | Sfp PPTase inh | D2 potentiator
COc1ccc(S(=O)(=O)NCCC(=O)NCc2ccc(F)cc2)cc1 | 5% | 0.3% | 0.2 | -23 | 0% | 12% | 3
Cc1ccn(CC(=O)N2CCCC(N3CCN(c4cccc(Cl)c4)CC3)C2)n1 (stereo unspecified) | 11% | 1.6% | / | 4 | ? | 11% | -20
CC(=O)Nc1ccc(NC(=O)C/C(C)=N/NC(=O)c2cccc3ccccc23)cc1 | 2% | / | -0.3 | -41 | -18% | 3% | -3
Cc1ccc2cc(CCNC(=O)Cc3cccs3)c(=O)[nH]c2c1 | 0% | -28% | 4.0 | 11 | -7% | 11% | -6
Cc1cccn2cc(-c3ccc(Cl)cc3)nc12 | ? | 4.0% | -0.6 | 12 | -28% | -4% | -9
CC(=O)c1c(C)n(-c2ccc(C)cc2C)c2ccc(O)cc12 | 12% | -5.6% | 0.8 | -6 | 32% | 3% | -6
O=C1OC[C@@H]2CCCN2C(=O)[C@@H](CC(=O)N(CCO)Cc2ccccc2)C/C=C\C[C@H]1Cc1ccc(F)cc1 | 5% | -0.3% | / | / | -35%[inhibitor] | / | 1
O=C(Nc1cccc(C(F)(F)F)c1)Nc1ccc(N2CCCC2)c(S(=O)(=O)Nc2ccccc2Cl)c1 | -16% | -5.6% | 5.3 | -16 | 17% | 17% | -8
CC(C)CC(NC=C1C(=O)OC(C)(C)OC1=O)C(=O)O (stereo unspecified) | -18% | -0.9% | 7.7 | -14 | -35%[inhibitor] | -21% | 3
Cc1ccc(CSCCC(=O)NCCC2=CCCCC2)cc1 | -4% | 0.5% | 0.7 | -3 | -15% | 10% | -18
O=c1c(O)c(-c2ccc(O)cc2)oc2cc(O)cc(O)c12 | 7% | -1.8% | ? | / | / | -12%&27% | -5
COc1cccc(-n2c(SCC(=O)NC3CCCC3)nnc2-c2ccco2)c1 | 14% | -1.6% | 0.4 | 13 | -2% | 2% | -3
C=CCNc1nc2c(c(=O)n(C)c(=O)n2C)n1CCCCCC | -23% | -0.6% | -0.4 | ? | 16% | -8% | 11
CCOC(=O)CON1C(=O)C(C)(C)N(OCC(=O)OCC)C(=O)C1(C)C | -2% | ? | -0.5 | 3 | 6% | 2% | 0
CN(C)S(=O)(=O)c1ccc(C(=O)OCC2CCCO2)cc1 (stereo unspecified) | 3% | -1.3% | -0.7 | 1 | 19%[15.4 µM] | -18% | -3

Printed as active in Sfp PPTase inh, among the entries above:
canonical_smiles	gsp antag	Menin-MLL FL inh	gsp ag	Sfp PPTase inh	D2 potentiator
CC1CCC2(CC1)NC(=S)N(C(C)(C)C)N2 (stereo unspecified)	9%	1.0	-10%[15.4 µM]	35µM*	-6

Additional records follow.
SMILES | gsp antag | ClpP mod | Menin-MLL FL inh | TRPV1 potentiator | gsp ag | Sfp PPTase inh | D2 potentiator
Cn1c(N/N=C/c2cc3ccccc3nc2Cl)nc2ccccc21 | -20% | 1.7% | ? | 18 | 0% | 79µM* | -14
Cc1ccc(Cl)c(NC(=O)CSc2cccc[n+]2[O-])c1Cl | 10% | / | / | / | 1% | / | 0
CN(C)S(=O)(=O)c1ccc(C(=O)OCC(=O)NC(=O)NC2CCCC2)cc1 | -7% | -2.5% | / | / | 5% | / | -11
O=c1oc2cc(Br)ccc2n1CSC1=NCCS1 | -3% | -0.6% | -0.1 | 5 | -3% | -7% | -9
N=c1c(C(=O)NCc2ccc3c(c2)OCO3)cc2c(=O)n3ccccc3nc2n1CC1CCCO1 (stereo unspecified) | -2% | 3.2% | 0.6 | -26 | 28µM* | 6% | -6
CCc1cc(C(N)=O)c(NC(=O)c2ccc(OC)cc2)s1 | ? | 0.2% | 2.4 | -9 | 9%[15.4 µM] | -12% | 2
Cn1cc(C(=O)Nc2cccc(F)c2)cn1 | 6% | 3.3% | 1.4 | -10 | 28% | 18% | -4
Cc1cccc(C)c1NC(=O)c1ccccc1C(=O)O | 12% | 1.7% | -2.7 | -5 | 25% | 9%&21% | 4
COc1ccc(NC(=O)C2CCCNC2=O)cc1 (stereo unspecified) | 12% | -1.0% | 5.6 | 1 | 1% | 0% | 2
O=C(O)c1ccc[n+](Cc2ccc([N+](=O)[O-])cc2)c1 | 3% | 0.7% | / | / | -16% | / | -8
O=c1cc(N2CCCC2)c2ccccc2o1 | -13% | / | 4.7 | 2 | 18%[15.4 µM] | 1% | -3
Cc1ccc(N2C(=O)CCSC23C(=O)Nc2ccccc23)cc1 (stereo unspecified) | 1% | 0.1% | 0.4 | -18 | ? | -4% | -5
O=C(COc1coc(CN2CCc3ccccc3C2)cc1=O)Nc1cccc([N+](=O)[O-])c1 | 0% | -0.6% | / | -12 | -14%[15.4 µM] | / | -4
COC(=O)c1cn(C(=O)c2ccco2)c2ccccc12 | -17% | -3.1% | 2.8 | 5 | 1% | -6% | -2
CCC(C)(C#CCN1CCCCC1)OCCC#N (stereo unspecified) | 5% | -1.4% | 0.4 | -4 | -31%[inhibitor] | 4% | -20
CCn1cc(C(=O)NCC2CCCO2)c(=O)c2cc(S(=O)(=O)N3CCC(C)CC3)ccc21 (stereo unspecified) | -14% | -2.6% | 1.0 | -16 | -12% | -10% | -8
CCOc1ccc(NC(=O)CC2C(=O)N(c3ccc(OC)cc3)C(=O)N2Cc2ccc(OC)cc2)cc1 (stereo unspecified) | -16% | -1.7% | -2.1 | -3 | -5% | 6% | -1
COc1ccc(O)c(/C=N/NC(=O)c2ccc(CSc3nc(C)cc(C)n3)cc2)c1 | -2% | -8.4% | 5.0 | 19 | -15% | -28% | 14
CC1=C(C#N)C(Nc2cccc(C)n2)(C(F)(F)F)C(=O)N1 (stereo unspecified) | 6% | 0.2% | -5.5 | 8 | -20% | -5% | 6
COCCn1c(SCC(=O)Nc2ccc(F)cc2F)nc2c(c1=O)SCC2 | / | 1.7% | / | / | -24% | / | 0
CC(=O)N1CCN(Cc2nc3cc(NC(=O)C4CCCCC4)ccc3n2C)CC1 | -3% | -1.9% | 0.4 | 5 | 11% | -4% | 5
COc1ccccc1-c1nc(SCC(=O)N2CCC(C(N)=O)CC2)n[nH]1 | 11% | 2.4% | / | -5 | -38%[inhibitor] | / | -16
COc1ccc(-n2c(-c3ccco3)nc3c(cnn3-c3ccc(C)cc3)c2=O)cc1 | ? | ? | 6.0 | -5 | ? | 7% | -9
O=C(CSCc1ccc(Cl)cc1)Nc1ccc2c(c1)OCCO2 | -19% | -2.7% | 1.2 | -16 | -25% | 4% | -3

Screens as filed in PubChem.

Not a hit list. Share with any hit: about 5.1%.
